Screening results: PubChem BioAssay, National Center for Advancing Translational Sciences (NCATS)
Cruzain inh Det = cruzain (T. cruzi) inhibition with detergent | P25779 | purified cruzain, Z-FR-AMC fluorescence, 0.01% Triton | Potency, µM, without a hit: max response, negative = inhibition, usual class: inhibitors | actives 0.43% (n = 200,000) | AID 1478; active means well fitted curve in the direction sought with a large enough effect; inconclusive means small, poorly fitted or top-dose-only effect, or another doubt; inactive means no such curve, though single readings can be large; an effect the other way counts as inactive or inconclusive;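 further: plate controls were neutral wells for no effect and buffer without enzyme for full effect; nearly all actives have a fitted effect of over 40% in size; top concentration of the series not given in the record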
Target sequence (P25779 123-467 limits assumed): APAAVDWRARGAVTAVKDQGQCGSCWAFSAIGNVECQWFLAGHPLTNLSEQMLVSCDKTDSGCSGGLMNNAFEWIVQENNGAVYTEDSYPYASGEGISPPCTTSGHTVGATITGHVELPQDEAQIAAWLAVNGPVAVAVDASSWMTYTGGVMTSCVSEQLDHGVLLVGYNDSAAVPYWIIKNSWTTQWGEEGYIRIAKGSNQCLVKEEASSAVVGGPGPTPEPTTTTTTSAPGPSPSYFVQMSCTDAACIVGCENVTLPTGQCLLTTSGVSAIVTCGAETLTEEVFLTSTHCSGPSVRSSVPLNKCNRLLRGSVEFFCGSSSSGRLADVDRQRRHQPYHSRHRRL
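Z-FR-AMC hydrolysis (2 uM substrate) by cruzain (1.5 nM) monitored kinetically at ex 360/em 450 nm after 15 min room-temperature compound exposure; 0.01% Triton X-100, pH 5.5, 5 mM DTT.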
RE007 growth inh = less growth of the S. pombe RE007 Vpr strain | actives 0.21% (n = 360,000) | Potency, µM (highest dose often 92.2 µM), for inactives: at the top dose activity change, negative = less growth | AID 651644 | S. pombe RE007 Vpr strain, BacTiter-Glo ATP luminescence, 24 h; control for the full effect not named in the record; active = well fitted falling curve with a large enough effect; inconclusive = small, poorly fitted or top-dose-only effect; inactive = no such curve, though single readings can be large or run the other way;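 further: on the % scale 0 is the no-effect control and ±100 the full control effect; nearly all actives have a fitted effect of over 50% in size; the assay follows cell death caused by Vpr and the record does not say whether a fall means rescue or toxicity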
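Fission yeast strain RE007, carrying one chromosomally integrated HIV-1 vpr copy, was seeded at OD 0.01 in PMG+AL medium with 23 nL pinned compound. After 24 h at 30 °C and 99% humidity, viability was read by BacTiter-Glo luminescence.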
Marburg entry inh = inhibitors of Marburg virus binding or cell entry; Marburg virus pseudotyped entry inhibition, cell reporter; control for the full effect not named in the record; about a third of the inactives were read at about 46 µM; Potency, µM (titrated, usually from 37.8 µM), inactives show at the highest dose activity change, negative = inhibition, most hits filed as inhibitors; actives 1.8% (n = 300,000); active = well fitted inhibition curve with a large enough effect; inconclusive = small, poorly fitted or top-dose-only effect, or effect the other way; inactive = flat fitted curve, though single readings scatter; tested in HEK293 cells; about a fifth of its hits are not listed in these tables; further: on the % scale 0 is the no-effect control and ±100 the full control effect; luciferase read-out
LASV entry inh = blocks Lassa virus binding to or entry into cells | Lassa virus pseudotype entry inhibition, cell reporter; control for the full effect not named in the record | Potency, µM (highest dose often 37.9 µM), for inactives: top-dose activity change, negative = inhibition, actives largely listed as inhibitors | actives 1.2% (n = 300,000); active means well fitted inhibition curve with a large enough effect; inconclusive means small, poorly fitted or top-dose-only effect, or effect the other way; inactive means flat fitted curve, though single readings scatter; tested in HEK293 cells; further: on the % scale 0 is the no-effect control and ±100 the full control effect; nearly all actives have a fitted effect of over 50% in size; luciferase read-out
StopGo reporter = FMDV 2A StopGo reporter, luciferase signal; AID 1159524; human cells with a luciferase reporter of 2A StopGo recoding; control for the full effect not named in the record; actives 1.2% (n = 410,000); Potency, µM (highest dose often 57.9 µM), for inactives: top-dose signal change, negative = less light; active = well fitted falling curve with a large enough effect; inconclusive = small, poorly fitted or top-dose-only effect; inactive = no such curve, though single readings can be large or run the other way; tested in HEK293T cells; further: on the % scale 0 is the no-effect control and ±100 the full control effect; nearly all actives have a fitted effect of over 45% in size; luciferase light after 4 h
NS1 inh = blocks influenza NS1 protein function; actives 0.4% (n = 270,000); S. cerevisiae slowed by influenza A NS1, growth recovery by OD600; Potency, µM (titrated, usually from 46.1 µM), inactives show at the top dose activity, positive = more growth; further: actives are rising curves; nearly all actives have a fitted effect of over 50% in size
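Growth recovery, yeast-based: influenza A NS1 expressed in S. cerevisiae causes slow growth, and suppressors are detected by OD600. The parent strain without NS1 is used as positive control.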
SARS PLP yeast = SARS-CoV PLP inhibition in yeast. S. cerevisiae expressing SARS-CoV PLpro, growth rescue; control for the full effect not named in the record. Potency, µM (doses to about 32.9 µM), without a hit: top-dose activity, positive = growth rescue. actives 0.19% (n = 330,000); further: 0% is about no effect; nearly all actives have a fitted effect of over 55% in size; growth read by luminescence after 48 h
Cruzain noTriton = cruzain (T. cruzi) inhibition without detergent. P25779. actives 2.3% (n = 200,000). purified cruzain, Z-FR-AMC fluorescence, no detergent. Potency, µM, without a hit: max response, negative = inhibition, hits mostly inhibitors; active means well fitted curve in the direction sought with a large enough effect; inconclusive means small, poorly fitted or top-dose-only effect, or another doubt; inactive means no such curve, though single readings can be large; an effect the other way counts as inactive or inconclusive;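 further: plate controls were enzyme without inhibitor for no effect and buffer without enzyme for full effect; nearly all actives have a fitted effect of over 40% in size; top concentration of the series not given in the record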
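Purified cruzain at 1.5 nM, pre-incubated 15 min with compound at room temperature in 100 mM sodium acetate pH 5.5, 5 mM DTT, 0.00005% Triton X-100. Reaction started with 2 uM Z-FR-AMC; AMC fluorescence increase over 60 s gives rate.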
An asterisk follows results filed as active; ? = inconclusive; . = not tested or not shown; & = joins results of further samples; [ ] = another dose, or the depositor's remark. Unless noted, the call rests on the fitted dose curve; in most records, active means well fitted rising curve with a large enough effect; inconclusive means small, poorly fitted or top-dose-only effect; inactive means no such curve, though single readings can be large or run the other way. Potency means the concentration at half of the fitted maximal effect. Outcome played no part in choosing rows; any-hit rate near 4.5%.

structure | Cruzain inh Det | NS1 inh | StopGo reporter | SARS PLP yeast | LASV entry inh | Cruzain noTriton | RE007 growth inh | Marburg entry inh
CSC(=Nc1ccccc1)Nc1ccccc1 | . | 8% | -14% | -1% | -1%[46.1 µM] | . | -5% | 2%[46.1 µM]
CCOC(=O)C1CC(C)=C(C)CC1C(=O)O (configuration not stated) | . | 8% | -23% | 0% | . | . | 12% | .
COc1ccc(OC)c(N=c2oc3cc(O)ccc3cc2C(N)=O)c1 | -1.0% | ? | 22% | -1% | 12% | 5% | ? | ?
CCOC(=O)c1c(C2CC2)csc1NC(=O)COC(=O)CCS(=O)(=O)c1ccc(C)cc1 | -6.9% | -6% | -8% | -13% | 6% | 11% | 1% | 5%
CCOC(=O)Cc1csc(NC(=O)c2cc(C)cc(C)c2)n1 | . | -5% | 0% | -1% | -17%[46.1 µM] | . | 3% | -25%[46.1 µM]
CCc1c(C)sc(NC(=O)C2CC(c3c(F)cccc3Cl)=NO2)c1C#N (configuration not stated) | . | -1% | 16% | -11% | . | . | -12% | .
O=C(c1ccc(Br)o1)N1CCN(C23CC4CC(CC(C4)C2)C3)CC1 | . | . | -27% | . | -1% | . | -23% | 5%
CC(=O)c1cn(CC(=O)Nc2cccc(C)c2C)c2ccccc12 | . | 4% | ? | 1% | -26% | . | 13% | ?
CC1(C)CC(=O)C(C=Nc2cccc(/N=C/C3=C(O)CC(C)(C)CC3=O)n2)=C(O)C1 | -0.5% | -3% | . | 9% | . | 5% | . | 0%
COc1ccc(S(=O)(=O)c2ccccc2)cc1NC(=O)c1c(F)cccc1F | . | 10% | 20% | 12% | . | . | 5% | .
O=C(CCN1C(=O)/C(=C/C=C/c2ccccc2)SC1=S)Nc1cccnc1 | -3.9% | 17% | -17% | 14% | -1% | ? | -5% | ?
CN(C1=C(N2CCCCC2)C(=O)c2ccccc2C1=O)c1ccccc1 | -2.3% | -6% | . | ? | ? | -2% | -29% | ?
COc1ccc(NC(=O)COC(=O)Cc2c(F)cccc2Cl)cc1 | . | . | 13% | -2% | -1% | . | -10% | 17%
CCOc1ccc(-c2cc(C(=O)NCCc3ccc(C)cc3)c3ccccc3n2)cc1 | 1.4% | . | 27% | . | 16%[46.1 µM] | ? | . | .
COc1cccc(CC2(CO)CCCN(Cc3cn[nH]c3C3CCCCC3)C2)c1 (configuration not stated) | . | 1% | -19% | 0% | . | . | -11% | .
NNC(=S)NCc1ccco1 | . | -2% | -1% | 0% | ? | . | -10% | 20%
COc1ccc(NC(=O)Cn2c(-c3ccc(OC)cc3)cn(-c3ccc(C)cc3)c2=O)cc1 | -0.7% | -9% | 23% | 1% | -4% | -21% | -7% | ?
O=C(CN1N=C(c2ccc(Cl)cc2)CCC1=O)NCc1cccnc1 | -3.3% | 2% | -11% | 8% | 12% | -11% | 5% | 1%
N#Cc1c(NC(=O)CSc2ncc(-c3ccccc3)n2CC2CCCO2)sc2c1CCCC2 (configuration not stated) | 2.7% | 14% | 0% | 1% | 7.3µM* | ? | -12% | 5.2µM*
COc1cc(CN2CCN(C3CCC3)CC2CCO)cc(OC)c1 (configuration not stated) | . | 2% | -3% | 5% | 1% | . | 5% | -30%
COc1ccc(C2CC(c3c(Cl)cccc3Cl)n3nc(N)nc3N2)cc1 (configuration not stated) | 0.3% | ? | -7% | 3% | . | -23% | 3% | .
COc1ccc(C(C(=O)NCC2CCCO2)N(C(=O)c2snc(C(N)=O)c2N)c2ccc(C)cc2)cc1OC (configuration not stated) | . | 1% | -7% | 1% | . | . | -18% | -4%[46.1 µM]
CCC(C)(C)NC(=O)C(c1cccn1C)N(Cc1ccc(C)cc1)C(=O)Cn1nnc2ccccc21 (configuration not stated) | 11% | 3% | 31%[activator] | -1% | -4% | -28% | 1% | 1%&1%
Cc1cccc2sc(NC(=O)C3c4ccccc4Oc4ccccc43)nc12 | 3.7% | 3% | ? | -16% | ? | ? | 9% | ?
COc1ccc(/C(O)=C2/C(=O)C(=O)N(CC3CCCO3)C2c2cccc(O)c2)cc1 (configuration not stated) | -3.7% | 1% | 19% | -26% | -10% | -2% | 5% | 5%
O=C(COC(=O)Cc1ccccc1F)NNC(=O)c1ccc(Cl)cc1 | . | . | 0% | 4% | -24%[46.1 µM] | . | -13% | ?
CCc1ccc(OCCCC(=O)Nc2ccc(S(N)(=O)=O)cc2)cc1 | . | -1% | -26% | 0% | -7% | . | -4% | 13%[46.1 µM]
COc1ccccc1NC(=O)C1=C(C)NC(=O)NC1c1ccc(C)s1 (configuration not stated) | . | 5% | -3% | 0% | ? | . | -17% | -9%[46.1 µM]
Cc1ccc(S(=O)(=O)N2CCN(C(=O)c3ccccc3-c3nc4ccccc4s3)CC2)c(C)c1 | . | . | -19% | 1% | 20% | . | -4% | 1%
COc1ccc(CNC(=O)C2CCN(C(=O)N3CCOc4ccc(C)cc43)CC2)cc1 | 1.0%&-0.9% | -16% | -14%&-21% | 0% | ? | ? | 10% | -2%
O=C(c1ccccc1)c1ccc2nc(Nc3cc(Cl)ccc3O)c3nncn3c2c1 | -2.3% | . | -17% | . | ? | 0% | . | .
CC1(c2ccccc2)NC(=O)N(CC(=O)Nc2ccccc2C(=O)N2CCCCC2)C1=O (configuration not stated) | . | . | -14% | . | 2% | . | -16% | 5%
COc1ccc(C(=O)N(c2ccc(C)cc2)C2C=CS(=O)(=O)C2)cc1OC (configuration not stated) | . | . | -2% | 0% | -16%[46.1 µM] | . | -10% | -12%[46.1 µM]
Cc1nc2ccn(Cc3cccs3)c(=O)c2cc1C(=O)N1CCN(c2ccccc2)CC1 | -8.4% | . | 0% | . | ? | 29% | . | .
COc1ccc(N2CCN(CCCNC(=O)c3c(C)nn(-c4ccc(F)cc4)c3-n3cccc3)CC2)cc1 | -0.6% | . | ? | . | -21%[46.1 µM] | -5% | . | .
Cn1nc(C(=O)OCC(=O)Nc2ccc3ccccc3c2)c2ccccc2c1=O | . | . | -16% | 1% | -2% | . | 2% | ?
CCNCCC(=O)N1c2ccccc2Sc2ccc(NC(=O)OCC)cc21 | -3.5% | -21% | -14% | -5% | -22% | 10% | 3% | ?
COc1ccc(Cn2c(=O)c3cccnc3n(CC(=O)Nc3c(C)cc(C)cc3C)c2=O)cc1 | 0.6% | . | -5% | . | . | 23% | . | -10%[46.1 µM]
CC1=C(C(=O)Nc2ccccc2C(=O)NC2CCCCC2)SCCO1 | . | 0% | -13% | 0% | . | . | 5% | .
Cc1noc(C)c1S(=O)(=O)N(C)Cc1ccccc1 | . | . | 14% | -1% | 10% | . | -8% | 0%
CN(CC(=O)NCCc1ccc(F)cc1)Cc1cccc(Cl)c1 | . | -2% | -14% | 6% | 0% | . | -11% | -21%[46.1 µM]
CCn1cnc2scc(-c3ccccc3)c2c1=O | 4.2% | -30% | -5% | -8% | 17% | -11% | -10% | 9%
Cc1cccc(NC(=O)c2cccc(NC(=O)c3ccco3)c2)c1C | . | . | 0% | . | 11%[46.1 µM] | . | -4% | ?
Cc1nn2c(=O)cc(COC(=O)COc3ccccc3C)nc2s1 | -1.7% | . | -12% | . | 9%[46.1 µM] | 6% | . | .
O=[N+]([O-])c1ccc(N2CCN(c3ccccc3O)CC2)cc1 | . | 3% | 2% | -2% | 14%[46.1 µM] | . | -3% | 3%[46.1 µM]
O=C(CCCC(=O)N(CC(=O)NC1CCCCC1)c1cccc(F)c1)Nc1ccccn1 | . | 5% | 7% | 1% | -17% | . | 12% | -21%[46.1 µM]
CCCCOC(=O)CNc1n[nH]c(=S)[nH]c1=O | 3.9% | 2% | 3% | -3% | 11% | 2% | -2% | 18%
O=C(Cc1ccccc1)NCC1OCCc2ccccc21 (configuration not stated) | . | -2% | 7% | 0% | ? | . | 1% | 2%[46.1 µM]
CN(C)S(=O)(=O)Oc1cc(Cl)ccc1C(=O)Nc1ccc(F)cc1F | . | . | 15% | 1% | -8% | . | -1% | 3%[46.1 µM]
Cc1cc(C)c2cc(CN(Cc3nnnn3Cc3ccc(F)cc3)C3CCCC3)c(=O)[nH]c2c1 | -4.7% | ? | 21% | -8% | -2% | 7% | -8% | 3%
CCOC(=O)N1CCC(NC(=O)c2ccc(CNS(=O)(=O)c3ccc(F)cc3)cc2)CC1 | 3.8% | -21% | -6% | -3% | -10% | -7% | -1% | 0%&3%
CCn1c(SCC(N)=O)nc2c(c1=O)C1(CCCC1)Cc1ccccc1-2 | -2.3% | 13% | ? | . | -12% | ? | 5% | -14%[46.1 µM]
CC(C)CC(=O)Nc1c2c(nn1-c1ccc(F)cc1)CS(=O)(=O)C2 | . | -4% | -8% | 0% | 19%[46.1 µM] | . | -8% | -16%[46.1 µM]
CC(C)OC(=O)CCNc1n[nH]c(=O)[nH]c1=O | -0.7% | 15% | 8% | -4% | 17% | 0% | -11% | ?
Cc1ccc(CSc2ncc(Cl)c(C(=O)Nc3nnc(C)s3)n2)cc1 | -1.9% | . | 23% | . | 20%[46.1 µM] | 18% | . | 2%[46.1 µM]
CCOC(=O)C1CCN(C(=O)C2(NC(=O)Nc3ccccc3Cl)CCCCC2)CC1 | 2.1% | -4% | 0% | 5% | -26% | 0% | 8% | ?
O=C(COC(=O)C1CC1)NCCc1ccc(Cl)cc1 | . | . | -16% | 2% | 13% | . | 29% | ?
Cc1cc(C)n2nc(C(=O)OCC(=O)N(Cc3ccccc3)C(C)C)nc2n1 | . | . | -6% | -4% | -1% | . | 4% | -20%[46.1 µM]
CCCN(Cc1ccc(N(C)C)cc1)CC1CC1 | 2.0% | -4% | . | -10% | 15% | -1% | -7% | -9%
COc1ccc(-n2nc(C(=O)Nc3cc(C)ccn3)c3c4ccccc4n(C)c3c2=O)cc1 | -0.9% | . | -20% | . | 21%[46.1 µM] | 1% | . | 10%[46.1 µM]
CCOC(=O)CC(=O)CSc1nc2c(c(C)c1C#N)CCC2 | -0.4% | ? | -18% | 13% | 15% | 6% | 5% | 12%
